Screening data from PubChem.
AmpC nodet inh = AmpC beta-lactamase inhibition, detergent-free assay. AmpC nitrocefin hydrolysis, absorbance 480 nm, no detergent; potencies from a single point are estimates. P00811. Potency, µM (highest dose often 28.7 µM), without a hit: at the top dose activity change, negative = inhibition. AID 585. 71,000 tested, 1.8% active; active = falling curve, for most hits resting on a single point; inconclusive = weak or doubtful change; inactive = flat or rising curve; also: % of control where 0% means no effect; about half of the hits show no inhibition at the top dose; a quarter of the inactives give rising signals
Target sequence (P00811 whole entry, looked up): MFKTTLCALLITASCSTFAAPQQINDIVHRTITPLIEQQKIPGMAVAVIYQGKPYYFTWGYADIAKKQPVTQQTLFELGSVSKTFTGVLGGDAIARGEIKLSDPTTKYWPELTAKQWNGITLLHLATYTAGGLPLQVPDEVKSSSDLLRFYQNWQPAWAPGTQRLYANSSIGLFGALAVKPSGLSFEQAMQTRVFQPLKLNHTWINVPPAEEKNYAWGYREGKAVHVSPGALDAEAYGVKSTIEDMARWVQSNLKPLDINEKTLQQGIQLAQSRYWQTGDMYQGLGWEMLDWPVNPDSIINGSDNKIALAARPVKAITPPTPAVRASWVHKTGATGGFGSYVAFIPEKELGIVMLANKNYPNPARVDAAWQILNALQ
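AmpC in 20 mM phosphate buffer pH 7.0 was preincubated 15 min at room temperature with compounds. Nitrocefin (800 uM stock) was then added and hydrolysis followed at 480 nm every 20 s for 4 min.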
* = called active by the depositor; [ ] = remark or other dose. Potency is read from the fitted curve at half-maximal effect. These rows are one share of the data; count on the stated rates, not on these rows.

mol | AmpC nodet inh
O=C(NCC(=O)N(c1cccc(F)c1)C(C(=O)NCC1CCCO1)c1ccccc1)c1ccco1 (stereo unspecified) | 50%
C=C(CC1([C@@H](NP(=O)(c2ccccc2)c2ccccc2)[C@H]2C[C@@H]2CCCC)CC1)c1ccccc1 | 2%
Clc1ccc(CSc2nnc(-c3cccnc3)n2Cc2ccco2)c(Cl)c1 | 5%
Cn1c(Cn2c(=O)sc3ccccc32)nnc1SCC(=O)N1CCCCCC1 | 4µM*[single pt active]
Cc1ccc(-c2nnn(CC(=O)N(Cc3ccccc3)C(C(=O)NC(C)(C)C)c3ccncc3)n2)o1 (stereo unspecified) | 118%
CC(C)C(NC(=O)c1ccccc1)C(=O)NC1=NCCS1 (stereo unspecified) | -1%
CCOC(=O)C1=C(C)N(C)C(=O)NC1c1cccc(O)c1 (stereo unspecified) | -6%
CC12CN3CC(C)(CN(C1)C3c1ccncc1)C2=O (stereo unspecified) | 3%
COc1cc(C)c(C(C)C)cc1S(=O)(=O)n1cnc(C)c1 | 84%
CCn1c2c(c3cc(C(=O)O)ccc31)CCCC2=O | -5%
CCOC(=O)C1CCN(c2ncnc3c2oc2ccc(Br)cc23)CC1 | 95%
COCCNc1nc2c(c(=O)n(C)c(=O)n2C)n1Cc1cccc(C)c1 | 21%
CN(C(=O)c1cccnc1)c1nc(-c2ccccc2)cs1 | 20%
Cc1ccc(CSc2nnc(Cn3c(=O)sc4ccccc43)n2C)cc1 | 26%
CCN(CC)c1ccc(NC(=O)C2CC3CCC2C3)cc1 (stereo unspecified) | -1%
CC(=O)c1sc2nc(SCC(=O)N3CCCCC3)[nH]c(=O)c2c1C | 6%
O=C(NCC(=O)N(c1ccccc1)C(C(=O)NCC1CCCO1)c1ccccc1)c1ccco1 (stereo unspecified) | 56%
O=C1CC(c2ccco2)Cc2nc(N3CCc4ccccc4C3)ncc21 (stereo unspecified) | 20%
Cc1nn(Cc2ccccc2)c(C)c1NC(=O)c1cc(-c2ccco2)on1 | 15%
COc1cc(C2C(C#N)=C(N)Oc3cc(C)oc(=O)c32)ccc1OC(=O)N1CCOCC1 (stereo unspecified) | 20%

Next section (2 carried over from the part before).
mol | AmpC nodet inh
Cc1nn(Cc2ccccc2)c(C)c1NC(=O)c1cc(-c2ccco2)on1 | 15%
COc1cc(C2C(C#N)=C(N)Oc3cc(C)oc(=O)c32)ccc1OC(=O)N1CCOCC1 (stereo unspecified) | 20%
Cn1c(C(=O)NCCc2c[nH]c3ccccc23)cc2sccc21 | -6%
COC(=O)c1ccccc1NC(=O)C1CC=CCC1C(=O)O (stereo unspecified) | 4%
O=C(c1cnc2n(c1=O)CCS2)N(C1CCCCC1)C1CCCCC1 | 8%
Clc1cccc(-c2nnc3sc(-c4ccccc4)nn23)c1 | -17%
COc1ccc2[nH]cc(CCN)c2c1 | 0%
O=C(CSc1n[nH]c(-c2ccco2)n1)N1c2ccccc2Sc2ccccc21 | -4%
COc1ccccc1N1CCN(Cc2ccc(OC)c3ccccc23)CC1 | 48%
COc1cc(S(=O)(=O)N2CCN(C(=O)c3ccccc3F)CC2)c(OC)cc1NC(C)=O | 35%
C=CCOC(=O)C1=C(C)NC(C)=C(C(=O)OCC=C)C1c1ccc(O)cc1 | 9%
O=S(=O)(c1ccc(Cl)cc1)c1ccccn1 | -12%
CC(C)C(=O)CP(=O)(O)O | -4%[5.75 µM]
Cc1cc(C)c(S(=O)(=O)N2CCN(c3nc4c(c(=O)n(C)c(=O)n4C)n3C)CC2)c(C)c1 | 33%
Cc1noc(C)c1S(=O)(=O)N(C)CC(=O)NCc1ccccc1 | -1%
N/C(COc1ccc(C(=O)O)cc1)=N\O | -4%
CCN(Cc1nc2ccccc2c(=O)[nH]1)Cc1cc(=O)oc2cc(C)c(C)cc12 | 48%
CCN1CCN(C(c2cccs2)C(C)NC(=O)c2cccc(OC)c2OC)CC1 (stereo unspecified) | 12%
O=C(Oc1ccc(-c2ccccc2)cc1)N1CCCCC1 | 2%
Cc1nc2ccccn2c1/C(O)=C1\C(=O)C(=O)N(CCN2CCOCC2)C1c1cccs1 (stereo unspecified) | 3%
COCCN(CC(=O)Nc1cccc(C)c1)S(=O)(=O)c1ccc(S(=O)(=O)N2CCCC2)cc1 | -5%
N#Cc1c(NC(=O)c2ccc(Cn3cc(Br)cn3)o2)sc2c1CCCCCC2 | -17%
O=c1[nH]c(SCc2ccccc2Cl)nc2c1cnn2-c1ccccc1 | 7.9µM*
O=C1NCCN1Cc1cccc(Cl)c1 | -2%
COc1ccc(NC(=O)C(F)(OC)C(F)(F)F)c(OC)c1 (stereo unspecified) | 12%
CCc1ccccc1N(C)C(=O)CCc1nc(-c2ccc(C)cc2)no1 | 69%
CCCc1nc2ccccc2c(=O)n1/N=C/c1ccc(O)c(O)c1 | 2%
CCOc1ccc(NC(=O)C2CCC(N3C(=O)C4CC=CCC4C3=O)CC2)cc1 (stereo unspecified) | 55%
O=C(CCc1ccc(S(=O)(=O)N2CCOCC2)cc1)NCCCN1CCCC1=O | -13%
Cc1cc2c(c(Sc3ccccc3)n1)C(=O)OC2 | 10%
O=C(NCc1ccco1)c1c[nH]c2ccc(S(=O)(=O)N3CCOCC3)cc2c1=O | 14%
COc1ccc(OCC(O)Cn2c(Nc3ccccc3)nc3c2c(=O)n(C)c(=O)n3C)cc1 (stereo unspecified) | 52%
O=C(NCc1ccco1)C1CCCCN1S(=O)(=O)c1ccc(F)cc1 (stereo unspecified) | 13%
COc1cc(C(=O)Nc2nc(OC)c(-c3ccccc3)c(OC)n2)cc(OC)c1OC | 77%
Cc1ccc(C(=O)/C=C/Nc2ccccc2C(N)=O)o1 | 3%
COCCNC(=O)c1ccc(N2CCCCC2)c(NS(=O)(=O)c2ccc(C)cc2)c1 | 118%
CCN(CC)C(=O)c1ccc(NC(=O)Cn2nc(C)c3ccccc3c2=O)cc1 | 20%
COc1ccc(S(=O)(=O)N2CCCC2C(=O)Nn2cnnc2)cc1 (stereo unspecified) | 1%
O=C(NC1CCN(Cc2ccccc2)CC1)C1CCN(S(=O)(=O)c2cccc3nsnc23)CC1 | 35%
COC(=O)Cc1c(C)nc2nc(NCc3c(F)cccc3Cl)[nH]n2c1=O | -15%
O=C(NC1CCCC1)C(c1ccc(O)cc1)N(CC1CCCO1)C(=O)C1COc2ccccc2O1 (stereo unspecified) | 6%
CCC(=O)N(CC)c1nc(-c2ccc(OC)cc2)cs1 | 26%
COc1ccc(/C(O)=C2/C(=O)C(=O)N(CCN(C)C)C2c2ccccc2)cc1Cl (stereo unspecified) | 4%
Cc1ccc2oc(=O)n(CCOc3ccccc3Cl)c2c1 | 19%
CN(C)C(=O)c1ccc(-c2ccc3ncnc(NCc4cccs4)c3c2)cc1 | 114%
COc1ccc(NC(=O)CSc2nccn2-c2cccc(OC)c2)cc1 | 4%
O=C(COC(=O)c1ccc(=O)n(Cc2ccccc2)n1)Nc1ccc2c(c1)OCCO2 | 23%
COC(=O)c1ccccc1NC(=O)CN1CCC(C(=O)c2ccc3c(c2)OCCO3)CC1 | 35%
C=CC(=C)CC(NC)c1ccccc1 (stereo unspecified) | 2%
CCOC(=O)c1nc(S(C)(=O)=O)ncc1N1CCOCC1 | -3%
C#CCCCC(=O)Nc1ccccc1 | -7%
O=C(O)C/C(=C\c1ccccc1)C(=O)O | 5%[5.75 µM]
Cc1nn(-c2cc(N3CCCCC3)ccc2N)c(=O)c2ccccc12 | 7%
CCc1nnc(NC(=O)CCC(=O)N2CCN(Cc3ccccc3)CC2)s1 | 8%
COC(=O)[C@@]1(Cc2ccc(OC)cc2)[C@H]2c3cc(C(=O)N4CCCC4)n(C[C@H](O)CO)c3C[C@H]2CN1C(=O)c1ccccc1 | 172%
c1cnc(N2CCN(c3nc4ccccc4n4cnnc34)CC2)nc1 | 60%
COc1cccc(NC(=O)N(Cc2ccco2)C(C)c2cccs2)c1 (stereo unspecified) | -8%
CS(=O)(=O)N(CC(=O)NCc1ccco1)Cc1ccc(Cl)cc1 | 11%
CCNc1nc(N)nc(Oc2ccc(C(=O)OC)cc2)n1 | -2%
O=C(CCn1[nH]c(=O)c2ccccc2c1=O)OC1CCCCC1 | 0%
COCCn1cc(C(=O)N2CCCC(C)C2)c2c3ccccc3n(C)c2c1=O (stereo unspecified) | 110%
COc1cc(C(=S)N(C)C)ccc1O | -8%

Quoted from the entries so far, 2 compounds:
mol | AmpC nodet inh
COCCn1cc(C(=O)N2CCCC(C)C2)c2c3ccccc3n(C)c2c1=O (stereo unspecified) | 110%
COc1cc(C(=S)N(C)C)ccc1O | -8%

As entered above:
O=C(CCn1[nH]c(=O)c2ccccc2c1=O)OC1CCCCC1 in AmpC nodet inh: 0%
COc1cc(C(=S)N(C)C)ccc1O in AmpC nodet inh: -8%
CCc1nnc(NC(=O)CCC(=O)N2CCN(Cc3ccccc3)CC2)s1 in AmpC nodet inh: 8%
COc1ccc(/C(O)=C2/C(=O)C(=O)N(CCN(C)C)C2c2ccccc2)cc1Cl (stereo unspecified) in AmpC nodet inh: 4%
Cc1ccc2oc(=O)n(CCOc3ccccc3Cl)c2c1 in AmpC nodet inh: 19%
CCOC(=O)c1nc(S(C)(=O)=O)ncc1N1CCOCC1 in AmpC nodet inh: -3%
COCCn1cc(C(=O)N2CCCC(C)C2)c2c3ccccc3n(C)c2c1=O (stereo unspecified) in AmpC nodet inh: 110%

(cont.)
mol | AmpC nodet inh
Cc1cc(C)c2cc(C(c3nnnn3C3CCCC3)N3CCOCC3)c(=O)[nH]c2c1 (stereo unspecified) | 89%
O=c1c2ccccc2ncn1Cc1nc2ccccc2s1 | 7%
COc1ccc2[nH]cc(CCNc3nc(-c4ccoc4)nc4ccccc34)c2c1 | -19%
O=C(NCCO)c1c(O)c2cccc3c2n(c1=O)CC3 | 9%
O=C(c1ccc2c(c1)OCO2)N1CCc2ccccc2C1 | -4%
COCCCn1c(SCC(=O)N2CCCC(C)C2)nnc1-c1ccco1 (stereo unspecified) | 19%
O=C(Cn1nc(Cc2cccnc2)c2ccccc2c1=O)NCCCN1CCCC1=O | 4%
CC(C)(O)C#CC#CCN1CCOCC1 | -6%
O=C(O)c1ccc(Cn2cc(Cl)cn2)cc1 | -9%
Cn1c(=O)c(=O)n(C)c2cc(S(=O)(=O)N3CCC(N4CCCCC4)CC3)ccc21 | -11%
CC(=O)Nc1cccc(NC(=O)CSc2nnnn2Cc2ccccc2)c1 | -6%
CCS(=O)(=O)n1nc(-c2ccc(C)cc2)nc1N | 10%
OCCNCCO | 3%
CN(C)CCNC(=O)c1ccc(CS(=O)(=O)c2ccc(Br)cc2)o1 | 7%
CCOC(=O)c1nn(-c2ccc3c(c2)CCN3C(C)=O)cc1O | 14%
Cc1nccn1-c1ncnc2sc3c(c12)CCCC3 | 10%
Cc1ccc2cc(C)c(N3CCN(c4ccccn4)CC3)nc2c1 | 19%
CC(C)CCNC(=O)CN(C(=O)Cn1nnc(-c2ccc(F)cc2)n1)C1CCCC1 | 38%
CCNC(=O)[C@@H]1O[C@@H](n2cnc3c(N)ncnc32)[C@@H](O)[C@H]1O | 5%
Cc1c(Cl)ccc2c1NC(=O)[C@]21[C@@H]2C(=O)N(Cc3ccccc3)C(=O)[C@@H]2[C@@H]2CCCN21 | 60%
Cc1cc(C)n(S(=O)(=O)c2cc(Cl)ccc2Cl)n1 | -1%
CC(=O)c1c(C)nn(C(=O)c2cccs2)c1C | 2%
CCc1c(C)c(C#N)c2nc3ccccc3n2c1Nc1c(C)n(C)n(-c2ccccc2)c1=O | 24%
CC(C)CN(C(=O)COC(=O)CCc1c[nH]c2ccccc12)C1CCS(=O)(=O)C1 (stereo unspecified) | 76%
CN1CCN(c2ncc3nc(-c4cccc(C#N)c4)c(=O)n(C)c3n2)CC1 | 48%
O=C(c1cnn2c(C(F)F)cc(-c3ccccc3)nc12)N1CCN2CCCC2C1 (stereo unspecified) | 38%
Cc1cc(C)c(C#N)c(N2CCCC(C(N)=O)C2)n1 (stereo unspecified) | -5%
O=C(CNS(=O)(=O)c1ccc(Br)s1)N1CCN(c2ncccn2)CC1 | 30%
CCOC(=O)c1c(NCc2ccc3c(c2)OCO3)c2ccccc2[nH]c1=O | 2%
Cc1cc(C)c(NC(=O)CN2C(=O)NC3(CCCCC3)C2=O)c(Cl)c1 | -6%
O=C(Nc1ccccc1)N1CCC2(CCNCC2)CC1 | 12%
Cc1oc(-c2ccccc2F)nc1CS(=O)(=O)CC(=O)N1CCCCCC1 | 61%
CCn1c(SCC(=O)Nc2ccc3c(c2)OCCO3)nnc1-c1ccccn1 | 27%
CSc1nnc(-c2ccccc2)c(=O)[nH]1 | -6%
C=CCn1c(SCC(=O)NCc2ccc3c(c2)OCO3)nnc1C1CCCCC1 | 29%
Cc1ccc(SCN2CCCCC2)cc1 (tested in a mixture with another compound) | -5%[5.75 µM]
CCOC(=O)c1cc2c(=O)n3ccccc3nc2n(C(C)C)c1=NC(=O)c1ccncc1 | 43%
Cc1ccc(-c2noc(CCC(=O)Nc3ccc(C)cn3)n2)cc1 | -23%
Cc1ccc(S(=O)(=O)Nc2cc(C(=O)NCCN(C)C)ccc2N2CCCCC2)cc1 | 95%
Cc1ccccc1CN1CCN(S(=O)(=O)c2ccc(F)cc2)CC1 | 10%

3 entries from above in another layout.
> O=C(CNS(=O)(=O)c1ccc(Br)s1)N1CCN(c2ncccn2)CC1
  AmpC nodet inh: 30%
> CCOC(=O)c1c(NCc2ccc3c(c2)OCO3)c2ccccc2[nH]c1=O
  AmpC nodet inh: 2%
> Cc1cc(C)c(NC(=O)CN2C(=O)NC3(CCCCC3)C2=O)c(Cl)c1
  AmpC nodet inh: -6%

Later entries:
mol | AmpC nodet inh
Nc1nonc1-c1nc2ccccc2n1CC(=O)N1CCCCC1 | -1%
CC(=O)Nc1cccc(NC(=O)C2CCCN2C(=O)Nc2ccc(Cl)cc2)c1 (stereo unspecified) | 2%
O=C(CCSc1nc2ccccc2o1)N1CCOCC1 | 14%
COCCOC(=O)C1=C(C)NC2=C(C(=O)CC(C)(C)C2)C1c1ccc(N(C)C)cc1 (stereo unspecified) | 48%
